Screening results: PubChem BioAssay, several laboratories
CBX7 inh: CBX7 inhibition, primary AlphaScreen. AID 1224903. 1.1% of 66,000 active. O95931. AlphaScreen His6-CBX7 / biotin-H3K27me3 peptide binding; active compounds read low. normalised signal (fraction of DMSO) (concentration not given with the values); in the data active = normalised signal below about 0.5;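 note: 100 nL library stock added to about 20 µL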
Target sequence (O95931 whole entry, looked up): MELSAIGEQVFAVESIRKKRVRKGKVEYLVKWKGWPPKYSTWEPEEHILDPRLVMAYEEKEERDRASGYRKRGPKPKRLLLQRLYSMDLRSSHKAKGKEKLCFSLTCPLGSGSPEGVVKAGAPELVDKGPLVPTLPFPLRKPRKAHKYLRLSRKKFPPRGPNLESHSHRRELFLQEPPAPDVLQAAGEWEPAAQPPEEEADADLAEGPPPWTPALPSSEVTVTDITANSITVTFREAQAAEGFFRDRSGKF
CBX7 inh z-score: further read-out of CBX7 inh, marked with its call; z-score; measured here: z-score of CBX7 signal; some inactives read as strong as hits; reference of the scale not given here;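 same signal on another scale; lower means less binding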
Starred values were filed as active, the others as inactive; & = joins results of further samples. A portion of the library; the hit share may differ from the screen's.

SMILES | CBX7 inh | CBX7 inh z-score
Cc1cccc(-c2nc(SCC(=O)Nc3ccc4c(c3)OCCO4)c(-c3ccccc3)[nH]2)c1 | 0.784 | -10.2
Cc1ccc(C)c(NS(=O)(=O)c2cnc[nH]2)c1 | 1.04 | 0.534
Cc1ccc(-n2c(C)nc3c(cnn3-c3ccc(Cl)cc3)c2=O)cc1C | 0.876 | -1.9
FC(F)(F)c1nc(Nc2ccc(-c3ccccc3)cc2)sc1-c1ccc(Cl)cc1 | 1.14 | 2.22
Cc1cccc(N2CC(c3nc4ccccc4n3Cc3ccc(F)cc3)CC2=O)c1C (stereo not drawn) | 0.814 | -1.16
COc1ccccc1CNC(=O)c1sc2ncn(CC(=O)Nc3ccccc3OC)c(=O)c2c1C | 1 | 0.000325
COc1ccccc1NC(=O)CNC(=O)Cn1cnc2sc(C)c(C)c2c1=O | 0.984 | -0.155
COC(CNC(=O)CN1CCN(Cc2ccc(C)cc2)C1=O)OC | 0.973 | -0.469
CCOc1ccc(N2CC(C(=O)Nc3cc(Cl)cc(Cl)c3)CC2=O)cc1 (stereo not drawn) | 0.857 | -0.195
COc1ccc(COCC(O)CN2CCN(C)CC2)cc1OC (stereo not drawn) | 1.29 | 2.16
O=C(CSc1nc(-c2ccc3c(c2)OCO3)cn1-c1ccccc1)Nc1cccc(F)c1 | 0.953 | -1.56
COc1ccc(C)cc1N(C)C(=O)CCc1nc(-c2ccccc2F)no1 | 1.02 | 0.531
Cn1c(C(=O)NC2CC2)cc2sc(Cl)cc21 | 0.997 | -0.119
Cc1ccc(-c2csc(Nc3ccc(S(=O)(=O)Nc4cc(C)on4)cc3)n2)cc1 | 0.983 | -0.368
Cc1ccc(C)c(N2CCN(C(=O)c3cnn4c(C)c(Cc5cccc(Cl)c5)c(C)nc34)CC2)c1 | 0.771 | -8.94
CC(C)CCNC(=O)CN1N=C(c2ccc(Cl)cc2)CCC1=O | 1.04 | 0.546
CCOC(=O)N1CCC(Nc2c(N3CCN(C4CCCCC4)CC3)c(=O)c2=O)CC1 | 1.05 | 0.865
Cc1c(C(=O)Nc2ccc(F)cc2)oc2ccc(S(=O)(=O)N3CCCC3)cc12 | 1.16 | 2.97
CN(CC(=O)Nc1c2c(nc3ccccc13)CCC2)Cc1ccccc1 | 0.947 | -0.683
CCC(=O)NC(C)C(c1cccs1)N1CCOCC1 (stereo not drawn) | 0.976 | -0.542
O=C(c1ccc2c(c1)N(Cc1ccc(F)cc1)C(=O)c1ccccc1S2(=O)=O)N1CCCCCC1 | 0.882 | -2.82
CN(CCNC(=O)CCn1nc(-c2ccccc2)ccc1=O)Cc1ccccc1 | 1.05 | 1.5
CCc1ccc(OCC(=O)N(Cc2nc(-c3ccc(C)cc3)no2)C(C)C)c(Br)c1 | 1.04 | 0.848
COc1ccc(S(=O)(=O)Nc2ccc(-c3csc(-c4ccccc4)n3)cc2)cc1 | 0.63 | -1.03
COCCCN1C(=O)N(c2ccccc2)C(=O)C1CC(=O)Nc1ccc(F)cc1 (stereo not drawn) | 0.772 | -0.919
COc1ccc(Nc2nc(N3CCN(S(=O)(=O)c4ccc(C)cc4)CC3)nc3ccccc23)cc1 | 1.09 | 3.91
CCOC(=O)c1c(C)n(C)c2ccc(OCC(O)CNCCc3ccccc3)cc12 (stereo not drawn) | 0.937 | -2.79
O=C(NCCCN1CCOCC1)c1ccc2c(c1)NC(=O)C1CCCN21 (stereo not drawn) | 1.1 | 0.459
CCn1c(C(=O)NC2CCCCCC2)cc2sccc21 | 0.974 | -0.422
CCOC(=O)c1c(C)n(C)c2ccc(OCC(O)CN3CCN(CCO)CC3)cc12 (stereo not drawn) | 0.939 | -2.19
COc1ccc(CNC(=O)C2CCC(=O)N2C(C)C)cc1 (stereo not drawn) | 1.01 | 0.364
CCOc1ccc(NS(=O)(=O)c2ccc3c(c2)CCN3C(=O)CCC(=O)O)cc1 | 0.838 | -2.65
Cc1ccc(OCC(O)CN2CCCCC2)c(C)c1 (stereo not drawn) | 0.993 | -0.107
Cc1cc(Nc2ccc(Br)cc2)nc(-c2ccccc2O)n1 | 1.08 | 1.57
O=C(Cn1cc2c(n1)CCCC2)N1CCc2ccccc2C1 | 1 | 0.0717
CC1CCCC(C)N1CCCNC(=O)C1c2ccccc2C(=O)N1Cc1ccc(F)cc1Cl (stereo not drawn) | 0.862 | -1.59
CCOC(=O)Cc1ccc(NC(=O)Nc2ccc3snnc3c2)cc1 | 0.995 | -0.21
CN(C)CCNC(=O)c1csc2c1CCCC2 | 1.06 | 1.81
N#Cc1c2n(c3c(=O)n(Cc4ccccc4Cl)cnc13)CCCC2 | 0.943 | -0.616
Cc1ccc(CNC(=O)C2CCC(=O)N2C(C)C)cc1 (stereo not drawn) | 1.04 | 0.79
CC(=O)N1CCc2cc(S(=O)(=O)N3CCN(C)CC3)ccc21 | 0.968 | -1.03
Cc1c(C(=O)N2CC(C)CC(C)C2)oc2ccc(S(=O)(=O)N3CCC4(CC3)OCCO4)cc12 (stereo not drawn) | 1.11 | 1.15
CCOC(=O)c1sc2ncn(CC(=O)Nc3ccc(F)cc3F)c(=O)c2c1C | 1.09 | 3.73
O=S(=O)(c1ccc(Cl)c(-c2nnc(-c3ccc(Br)cc3)o2)c1)N1CCOCC1 | 1.14&1.01 | 1.37&0.163
CCOC(=O)c1cnc2ccc(OCC)cc2c1Nc1ccc(C)c(C)c1 | 1.21 | 2.64
CCN(CC)S(=O)(=O)c1ccc2c(c1)N(CC(=O)NCc1ccccn1)C(=O)CO2 | 0.976 | -1.14
Cc1ccc(-n2nc3c(c2NC(=O)Cc2ccc(F)cc2)CSC3)cc1 | 0.927 | -3.66
Cc1cccc(-c2nc(Nc3cccc(Cl)c3)c3ccccc3n2)c1 | 1.21 | 4.79
Cc1ccc(NCc2nnc3n2CCCCC3)c(C)c1 | 0.972 | -0.269
CC1=CC(C)C2(CO)COC(c3ccccc3O)C1C2C (stereo not drawn) | 1.12 | 1.79

Brought forward from above: 2 entries, then new ones.
SMILES | CBX7 inh | CBX7 inh z-score
Cc1ccc(NCc2nnc3n2CCCCC3)c(C)c1 | 0.972 | -0.269
CC1=CC(C)C2(CO)COC(c3ccccc3O)C1C2C (stereo not drawn) | 1.12 | 1.79
CCN1C(=O)c2ccccc2S(=O)(=O)c2ccc(C(=O)NCc3ccc(Cl)cc3)cc21 | 0.996 | -0.0988
COc1ccc(NC(=O)CCc2nc(-c3ccc(C)cc3)no2)cc1Cl | 1.07 | 0.0978
Cc1nnc2ccc(NCc3ccccc3Cl)nn12 | 0.97 | -0.835
Cc1ccc(Sc2cc(C(=O)NCCc3ccc(Cl)cc3)c3ccccc3n2)cc1 | 0.982 | -0.55
CCN1C(=O)c2ccccc2S(=O)(=O)c2ccc(C(=O)NCCCN3CCCCCC3)cc21 | 1.01 | 0.18
Cc1ccc(-c2noc(CSc3nnc(-c4cccs4)n3C)n2)cc1 | 0.915 | -1.93
COc1ccc(C(C(=O)NC2CCCC2)N2CCC(Cc3ccccc3)CC2)cc1 (stereo not drawn) | 0.793 | -5.16
CCOC(=O)c1cnc2ccccc2c1Nc1ccc(C(=O)OC)cc1 | 0.998 | -0.0537
Cc1ccc(C)c(NC(=O)CSc2nnc(CNC(=O)c3cccs3)o2)c1 | 1.1 | 2.98
Cc1cc(C)c(C(N)=O)c(Nc2ccc3c(c2)OCCO3)n1 | 1.07 | 3.02
COc1ccc(/C=C\c2onc(C)c2S(=O)(=O)N2CCC(C(=O)Nc3nccs3)CC2)cc1 | 0.896 | -1.68
Cc1cccc(Nc2nc(-c3ccccn3)cs2)c1 | 0.162* | -16.6*
Fc1ccc(-c2cc(C(F)(F)F)n3nc(-c4ccccc4)cc3n2)cc1 | 1.24 | 2.1
Cc1cc(C)c(OCC(=O)Nc2c(C(=O)c3ccc(Cl)cc3)oc3ccccc23)c(C)c1 | 1.1 | 0.453
O=C(CSc1ccc2nnc(-c3ccccc3)n2n1)Nc1ccc(Cl)cc1 | 1.1 | 1.19
CCN(CC)S(=O)(=O)c1ccc2[nH]cc(C(=O)NCCC(C)C)c(=O)c2c1 | 1.02 | 0.334
COc1ccc(C(c2sc3nc(C)nn3c2O)N2CCCC(C)C2)cc1OC (stereo not drawn) | 0.974 | -1.24
Cc1ccc(-c2cc(C(=O)Nc3ncccn3)c3ccccc3n2)cc1C | 1.01 | 0.0544
Cc1ccc(NC(=O)C2CCCN(C(=O)c3cnn(-c4ccccc4)c3-n3cccc3)C2)cc1C (stereo not drawn) | 0.95 | -2.52
CCn1cc(C(=O)O)c(=O)c2cc(F)c(N3CCNCC3)cc21 | 1.12 | 2.43
COc1ccc(NC(=O)Nc2nc3c(s2)CCCC3)cc1 | 0.838 | -4.02
CCn1c(SCc2ccc(Br)cc2)nnc1-c1ccncc1 | 1.12 | 1.33
Cc1ccc2nc(-c3ccncc3)c(Nc3ccc(C(C)C)cc3)n2c1 | 1 | 0.094
Cc1ccccc1OCC(=O)Nc1ccc(S(=O)(=O)Nc2ncccn2)cc1 | 0.935 | -2.14
CC1=C(C(=O)Nc2ccc(C)cn2)C(c2ccccc2C)C2=C(CCCC2=O)N1 (stereo not drawn) | 1.01 | 0.0775
CCOC(=O)N1CCC(NC(=O)Cn2ncc3c2-c2ccccc2OC3)CC1 | 0.978 | -0.633
COc1ccccc1-c1c(C(F)(F)F)oc2cc(OCC(=O)O)ccc2c1=O | 1.03 | 0.512
Cc1nnn(C23CC4CC(CC(CC(=O)Nc5ccc(C)c(F)c5)(C4)C2)C3)n1 | 1.08 | 1.92
Cc1ccc(C2CC(c3ccccc3F)n3ncnc3N2)cc1 (stereo not drawn) | 1.04 | 1.24
CC(=O)NC(CCS(C)(=O)=O)C(=O)Nc1ccc2c(c1)OCCO2 (stereo not drawn) | 0.989 | -0.481
O=C1CN(C(=O)CCCc2ccccc2)C(c2ccc(F)cc2)c2cc(Br)ccc2N1 (stereo not drawn) | 0.884 | -2.94
O=C(CSc1nc(Nc2ccc3c(c2)OCO3)c2ccccc2n1)c1ccccc1 | 0.795 | -0.573
NC(=O)CSc1oc(-c2ccc(F)cc2)nc1S(=O)(=O)c1ccc(Cl)cc1 | 0.964 | -0.299
CCC(C)NC(=O)CN1C(=O)COc2ccc(S(=O)(=O)N(CC)CC)cc21 (stereo not drawn) | 1.19 | 3.02
COc1cccc(-c2cc(C(=O)Nc3c(C)nn(Cc4ccc(Cl)cc4)c3C)no2)c1 | 0.944 | -1.22
CCOC(=O)c1ccc(-n2c(C)nc3c(cnn3-c3ccc(Cl)cc3)c2=O)cc1 | 0.964 | -0.457
O=C(NC1CCCC1)C1c2ccccc2C(=O)N1Cc1ccc2c(c1)OCO2 (stereo not drawn) | 0.885 | -1.24
C=C(C)Cn1c(CNC(=O)c2ccccc2)nc2ccccc21 | 1.16 | 1.63
CC1CCCC(NC(=O)CN2C(=O)COc3ccccc32)C1C (stereo not drawn) | 0.942 | -1.32
CCOC(=O)c1ccccc1NC1c2ccccc2C(=O)N1c1cccnc1 (stereo not drawn) | 1.05 | 0.789

Taken from above:
In CBX7 inh z-score, `CCC(C)NC(=O)CN1C(=O)COc2ccc(S(=O)(=O)N(CC)CC)cc21` (stereo not drawn) has the entry 3.02
In CBX7 inh z-score, `COc1cccc(-c2cc(C(=O)Nc3c(C)nn(Cc4ccc(Cl)cc4)c3C)no2)c1` has the entry -1.22

Back to the main list; the six compounds before the break are reprinted first.
SMILES | CBX7 inh | CBX7 inh z-score
COc1cccc(-c2cc(C(=O)Nc3c(C)nn(Cc4ccc(Cl)cc4)c3C)no2)c1 | 0.944 | -1.22
CCOC(=O)c1ccc(-n2c(C)nc3c(cnn3-c3ccc(Cl)cc3)c2=O)cc1 | 0.964 | -0.457
O=C(NC1CCCC1)C1c2ccccc2C(=O)N1Cc1ccc2c(c1)OCO2 (stereo not drawn) | 0.885 | -1.24
C=C(C)Cn1c(CNC(=O)c2ccccc2)nc2ccccc21 | 1.16 | 1.63
CC1CCCC(NC(=O)CN2C(=O)COc3ccccc32)C1C (stereo not drawn) | 0.942 | -1.32
CCOC(=O)c1ccccc1NC1c2ccccc2C(=O)N1c1cccnc1 (stereo not drawn) | 1.05 | 0.789
Cc1cc(N2CCCCC2)nc2ccc(NC(=O)CCC(=O)N(C)C3CCCCC3)cc12 | 1 | -0.00998
CCc1nnc(NC(=O)c2ccc(S(=O)(=O)N3CCCC(C)C3)cc2)o1 (stereo not drawn) | 0.638 | -8.17
COc1cccc(NS(=O)(=O)c2cnc[nH]2)c1 | 1.02 | 0.195
NC(=O)C1CCN(c2c(-c3ccccc3)c3cc(Cl)ccc3[nH]c2=O)CC1 | 1.03 | 1.74
Cc1ccc(-c2nc(Nc3ccc(Br)cc3C)c3ccccc3n2)cc1 | 0.976 | -0.411
COc1ccc(Nc2ncc(C(=O)Nc3cc(C)on3)c3ccccc23)cc1 | 1.05 | 0.91
O=C(NCc1cccs1)C1CCCN(S(=O)(=O)c2cccnc2)C1 (stereo not drawn) | 1.04 | 0.0369
COc1ccccc1CNC(=O)C(NS(=O)(=O)c1ccc2nc(C)sc2c1)C(C)C (stereo not drawn) | 1.07 | 1.27
CCN(c1ccc(C)c(C)c1)S(=O)(=O)c1ccc2[nH]c(=O)c(=O)[nH]c2c1 | 1.03 | 0.578
C=CCc1ccc(OCCOc2ccc(-c3nc4sc5c(c4c(=O)[nH]3)CCCC5)cc2)c(OC)c1 | 1.1 | 1.54
COc1ccc(OC)c(Nc2cc(C(=O)NCc3ccc(F)cc3)c3ccccc3n2)c1 | 1.03 | 0.582
CCOc1ccc(-n2cnnn2)cc1S(=O)(=O)NC1CCCCC1 | 0.999 | -0.00514
O=C1CC(N2CCN(c3ccccn3)CC2)C(=O)N1CCc1ccccc1 (stereo not drawn) | 0.975&0.894 | -0.379&-1.37
